Bioassay records (PubChem)
HIV Env fusion: HIV envelope-mediated fusion inhibition; inhibition, % at 12.3 µM; AID 651610; HeLa-JRFL Env/CEM21 cell fusion, luciferase; 360,000 compounds, 1.1% hits;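 active means mean replicate inhibition score of at least 50 and every replicate individually at or above 50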;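 further: 0% = plate neutral controls and 100% = maraviroc near 300 nM; one replicate is shown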
UUG fidelity: modulators of start codon recognition fidelity in yeast; S. cerevisiae UUG-firefly luciferase reporter, luminescence/redox ratio; activity score, % at 18.7 µM; 350,000 compounds, 0.13% hits; AID 602363;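 active means replicate mean at a twofold rise or more, about +100% in these data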;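 further: firefly luciferase made from a UUG start codon reports start codon fidelity; reporter light over untreated wells divided by growth signal over untreated wells; some hits fall short of that in this replicate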
* hit, by the source's call; [ ] = dose if it differs, or a comment. A portion of the library, so the mix of outcomes need not match the whole.

SMILES | HIV Env fusion | UUG fidelity
COc1ccc(NC(=O)N(C)C[C@@H]2Oc3c(NS(=O)(=O)c4ccc(F)cc4)cccc3C(=O)N([C@H](C)CO)C[C@H]2C)cc1 | -44[16.7 µM] | -7
CCCN(C)C[C@H]1Oc2cc(-c3ccc(C)cc3)ccc2S(=O)(=O)N([C@@H](C)CO)C[C@H]1C | -5[16.7 µM] | 4
C[C@H](CO)N1C[C@H](C)[C@H](CN(C)Cc2ccc3c(c2)OCO3)Oc2ccc(NC(=O)c3ccncc3)cc2C1=O | 9[16.7 µM] | -12
O=C(C[C@@H]1C=C[C@H](NC(=O)c2ccncc2)[C@H](CO)O1)NCC1CCCCC1 | 2[16.7 µM] | 10
COc1ccc(CNC(=O)C[C@H]2C[C@@H]3c4cc(NC(=O)CN(C)C)ccc4O[C@@H]3[C@H](CO)O2)cc1 | -13[16.7 µM] | -3
C[C@@H]1CN([C@H](C)CO)C(=O)c2cc(Br)cnc2O[C@H]1CN(C)CC1CCOCC1 | -36[16.7 µM] | -14
COc1ccc(NC(=O)Nc2ccc3c(c2)C(=O)N([C@H](C)CO)C[C@H](C)[C@@H](CN(C)Cc2ccc(C(F)(F)F)cc2)O3)cc1 | 12[16.7 µM] | 18
C[C@H]1CN([C@@H](C)CO)C(=O)c2cc(C#Cc3cccc(F)c3)cnc2O[C@H]1CN(C)C(=O)c1ccccc1F | 21[16.7 µM] | -3
Cc1noc(C)c1S(=O)(=O)Nc1ccc2c(c1)CC(=O)N([C@@H](C)CO)C[C@@H](C)[C@H](CN(C)Cc1ccncc1)O2 | 1[16.7 µM] | -6
C[C@@H]1CN([C@@H](C)CO)C(=O)CCCn2cc(nn2)CO[C@H]1CN(C)C(=O)Nc1ccc(-c2cccs2)cc1 | -14 | 35
CN1CCN(C(=O)C[C@H]2CC[C@@H]3[C@@H](COc4ccc(NC(=O)c5cccs5)cc4C(=O)N3C)O2)CC1 | -2[16.7 µM] | -4
C[C@H](CO)N1C[C@H](C)[C@H](CN(C)S(=O)(=O)c2cn(C)cn2)Oc2ccc(NC(=O)Nc3ccccc3)cc2C1=O | 13[16.7 µM] | 18
C[C@@H]1CCCCO[C@H](CN(C)S(=O)(=O)c2ccccc2)[C@@H](C)CN([C@H](C)CO)C(=O)c2cc(NC(=O)c3ccccc3)ccc2O1 | 5[16.7 µM] | -7
C[C@H](CO)N1C[C@H](C)[C@H](CN(C)C(=O)Nc2ccc(F)cc2)Oc2ccc(NC(=O)C3CCCCC3)cc2CC1=O | -7[16.7 µM] | 11
O=C(Nc1cccc(Cl)c1)N[C@H]1CC[C@H](CCNC(=O)C2CCCC2)O[C@@H]1CO | 20[16.7 µM] | 7
COc1cccc(CNC(=O)C[C@@H]2CC[C@H](NC(=O)C3CCC3)[C@H](CO)O2)c1 | -1[16.7 µM] | -5
COc1cccc(-c2cn(CC[C@H]3CC[C@H](NC(C)=O)[C@@H](CO)O3)nn2)c1 | 0[16.7 µM] | 1
O=C(NC1CCCCC1)N[C@@H]1CC[C@@H](CC(=O)N2CCOCC2)O[C@@H]1CO | 11[16.7 µM] | -19
O=C(C[C@H]1C=C[C@H](NC(=O)CCN2CCCCC2)[C@H](CO)O1)NCc1ccc(Cl)c(Cl)c1 | 11[16.7 µM] | -4
CCCNC(=O)C[C@H]1CC[C@@H]2[C@H](COc3ccc(NC(=O)c4cc(F)cc(F)c4)cc3C(=O)N2C)O1 | 15[16.7 µM] | -13
O=C(NCC[C@@H]1CC[C@H](NS(=O)(=O)c2ccccc2)[C@H](CO)O1)c1cc(Cl)cc(Cl)c1 | 10[16.7 µM] | 15
COCC#Cc1ccc2c(c1)O[C@H](CN(C)C(=O)c1ccccc1)[C@@H](C)CN([C@@H](C)CO)S2(=O)=O | 14[16.7 µM] | -1
COc1ccccc1C#Cc1cnc2c(c1)C(=O)N([C@H](C)CO)C[C@@H](C)[C@@H](CN(C)C)O2 | -10[16.7 µM] | -1
C[C@@H]1CCCCO[C@H](CN(C)C(=O)Nc2ccc(C(F)(F)F)cc2)[C@H](C)CN([C@@H](C)CO)C(=O)c2cc(NS(=O)(=O)c3cccs3)ccc2O1 | -17[16.7 µM] | 2
COc1ccc(NC(=O)Nc2ccc3c(c2)C(=O)N([C@H](C)CO)C[C@@H](C)[C@H](CN(C)S(=O)(=O)c2ccc(C)cc2)OCCCC[C@H](C)O3)cc1 | 12[16.7 µM] | -9
CN(C)C(=O)C[C@H]1CC[C@@H]2[C@@H](COc3ccc(NC(=O)C4CCCCC4)cc3C(=O)N2C)O1 | 4[16.7 µM] | 16
C[C@@H]1CCCCO[C@H](CN(C)C(=O)CCCN(C)C)[C@H](C)CN([C@@H](C)CO)C(=O)c2cc(NS(=O)(=O)c3ccc(Cl)cc3)ccc2O1 | 2[16.7 µM] | 20
CN(C)CCCNC(=O)C[C@H]1CC[C@H](NC(=O)Cc2cccnc2)[C@@H](CO)O1 | -6[16.7 µM] | -28
CO[C@H]1CN(C)C(=O)c2cc(NC(=O)C3CCC3)ccc2OC[C@H](C)N(Cc2ccncc2)C[C@@H]1C | 31[16.7 µM] | -3
CCCNC(=O)N(C)C[C@H]1Oc2ncc(C#C[C@H](C)O)cc2C(=O)N([C@@H](C)CO)C[C@@H]1C | -3[16.7 µM] | -2
C[C@H](CO)N1C[C@H](C)[C@@H](CN(C)S(=O)(=O)c2ccccc2F)Oc2ncc(C#Cc3ccccc3F)cc2C1=O | 18[16.7 µM] | -11
C[C@H](CO)N1C[C@H](C)[C@@H](CN(C)C(=O)Nc2cccc3ccccc23)Oc2ccc(NC(=O)C3CCCCC3)cc2C1=O | 9[16.7 µM] | -15
O=C(C[C@H]1C=C[C@@H](NS(=O)(=O)c2cccc(F)c2)[C@H](CO)O1)N1CCCCC1 | -18[16.7 µM] | -11
CCNC(=O)Nc1ccc2c(c1)C(=O)N(C)[C@@H]1CC[C@H](CC(=O)NCC3CC3)O[C@H]1CO2 | 19[16.7 µM] | 4
C/C=C/c1cnc2c(c1)C(=O)N([C@@H](C)CO)C[C@@H](C)[C@@H](CN(C)C(=O)Nc1ccc(OC)cc1)O2 | 20[16.7 µM] | 0
C[C@H](CO)N1C[C@H](C)[C@@H](CN(C)C(=O)Cc2ccccn2)Oc2cc(C#C[C@@H](C)O)ccc2S1(=O)=O | -6[16.7 µM] | -17
C[C@@H]1CCCCO[C@@H](CN(C)C(=O)C2CCCCC2)[C@@H](C)CN([C@@H](C)CO)C(=O)c2cc(NC(=O)CCCN(C)C)ccc2O1 | 2[16.7 µM] | 14
O=C(Cc1ccncc1)Nc1ccc2c(c1)[C@H]1C[C@@H](CC(=O)NC3CCCCC3)O[C@H](CO)[C@H]1O2 | 6[16.7 µM] | 12
CCCN(C)C[C@@H]1Oc2cc(C#Cc3cccc(F)c3)ccc2S(=O)(=O)N([C@@H](C)CO)C[C@@H]1C | 22[16.7 µM] | 8
C[C@@H]1CN([C@H](C)CO)C(=O)c2cc(NC(=O)Nc3ccc(C(F)(F)F)cc3)ccc2O[C@@H]1CN(C)Cc1ccc(C(F)(F)F)cc1 | -4[16.7 µM] | -2
COc1ccc(NC(=O)Nc2cccc3c2O[C@H](CN(C)S(=O)(=O)c2ccc(OC)cc2)[C@H](C)CN([C@H](C)CO)C3=O)cc1 | -8[16.7 µM] | 6
CCC(=O)Nc1ccc2c(c1)C(=O)N(C)[C@H]1CC[C@H](CC(=O)NC3Cc4ccccc4C3)O[C@@H]1CO2 | 9[16.7 µM] | -3
Cc1noc(C)c1S(=O)(=O)N(C)C[C@H]1Oc2ccc(NC(=O)C3CCCCC3)cc2CC(=O)N([C@@H](C)CO)C[C@H]1C | 6[16.7 µM] | -7
C[C@@H]1CN([C@@H](C)CO)C(=O)Cc2cc(NC(=O)C3CCCCC3)ccc2O[C@H]1CN(C)S(=O)(=O)c1cn(C)cn1 | -19[16.7 µM] | -12
C[C@@H]1CN([C@H](C)CO)C(=O)c2cc(NC(=O)C3CCCCC3)ccc2O[C@@H]1CN(C)C(=O)Nc1ccc(C(F)(F)F)cc1 | 7[16.7 µM] | 8
Cc1noc(C)c1NC(=O)N(C)C[C@H]1Oc2ccc(NC(=O)Nc3cccc4ccccc34)cc2C(=O)N([C@H](C)CO)C[C@@H]1C | 17[16.7 µM] | -9
Cc1ccc(S(=O)(=O)N(C)C[C@H]2Oc3ccc(NS(C)(=O)=O)cc3C(=O)N([C@@H](C)CO)C[C@@H]2C)cc1 | 14[16.7 µM] | -6
C[C@H](O)C#Cc1ccc2c(c1)O[C@@H](CN(C)C(=O)CC1CC1)[C@@H](C)CN([C@@H](C)CO)S2(=O)=O | -19[16.7 µM] | -9

Another view of some results above.
HIV Env fusion | UUG fidelity | structure
-8[16.7 µM] | 6 | COc1ccc(NC(=O)Nc2cccc3c2O[C@H](CN(C)S(=O)(=O)c2ccc(OC)cc2)[C@H](C)CN([C@H](C)CO)C3=O)cc1
9[16.7 µM] | -3 | CCC(=O)Nc1ccc2c(c1)C(=O)N(C)[C@H]1CC[C@H](CC(=O)NC3Cc4ccccc4C3)O[C@@H]1CO2
6[16.7 µM] | -7 | Cc1noc(C)c1S(=O)(=O)N(C)C[C@H]1Oc2ccc(NC(=O)C3CCCCC3)cc2CC(=O)N([C@@H](C)CO)C[C@H]1C
-19[16.7 µM] | -12 | C[C@@H]1CN([C@@H](C)CO)C(=O)Cc2cc(NC(=O)C3CCCCC3)ccc2O[C@H]1CN(C)S(=O)(=O)c1cn(C)cn1
7[16.7 µM] | 8 | C[C@@H]1CN([C@H](C)CO)C(=O)c2cc(NC(=O)C3CCCCC3)ccc2O[C@@H]1CN(C)C(=O)Nc1ccc(C(F)(F)F)cc1
17[16.7 µM] | -9 | Cc1noc(C)c1NC(=O)N(C)C[C@H]1Oc2ccc(NC(=O)Nc3cccc4ccccc34)cc2C(=O)N([C@H](C)CO)C[C@@H]1C
14[16.7 µM] | -6 | Cc1ccc(S(=O)(=O)N(C)C[C@H]2Oc3ccc(NS(C)(=O)=O)cc3C(=O)N([C@@H](C)CO)C[C@@H]2C)cc1
-19[16.7 µM] | -9 | C[C@H](O)C#Cc1ccc2c(c1)O[C@@H](CN(C)C(=O)CC1CC1)[C@@H](C)CN([C@@H](C)CO)S2(=O)=O

(further entries)
SMILES | HIV Env fusion | UUG fidelity
C[C@@H]1CCCCO[C@@H](CN(C)Cc2ccc3c(c2)OCO3)[C@H](C)CN([C@H](C)CO)C(=O)c2cc(NS(=O)(=O)c3ccccc3)ccc2O1 | -52[16.7 µM] | 5
C[C@H]1CN([C@@H](C)CO)C(=O)c2cc(NC(=O)Cn3cnnn3)ccc2O[C@H]1CN(C)Cc1ccc(-c2ccccc2)cc1 | -15[16.7 µM] | 4
C[C@H](CO)N1C[C@H](C)[C@H](CN(C)C(=O)Cc2ccccc2)OCCCC[C@H](C)Oc2ccc(N(C)C)cc2C1=O | 23[16.7 µM] | 8
O=C(NCC[C@@H]1CC[C@@H](NC(=O)c2cnccn2)[C@H](CO)O1)Nc1ccc(Cl)cc1 | -2[16.7 µM] | 22
COC(=O)C[C@H]1CC[C@@H]2[C@@H](COc3ccc(NC(=O)Nc4cccc(Cl)c4)cc3C(=O)N2C)O1 | 27[16.7 µM] | 11
CCC(=O)N(C)C[C@H]1Oc2cc(-c3ccccc3)ccc2S(=O)(=O)N([C@@H](C)CO)C[C@H]1C | -8[16.7 µM] | 25
C[C@@H]1CN([C@@H](C)CO)C(=O)c2cc(NC(=O)Nc3ccc(F)cc3)ccc2O[C@H]1CN(C)Cc1ccc(Oc2ccccc2)cc1 | 10[16.7 µM] | 2
Cc1noc(C)c1NC(=O)Nc1ccc2c(c1)C(=O)N([C@H](C)CO)C[C@H](C)[C@H](CN(C)Cc1ccc(C(F)(F)F)cc1)OCCCC[C@H](C)O2 | -4[16.7 µM] | 12
CC(C)CC#Cc1cnc2c(c1)C(=O)N([C@@H](C)CO)C[C@@H](C)[C@@H](CN(C)C(=O)Cc1cccnc1)O2 | -20[16.7 µM] | -18
C[C@@H]1CN([C@@H](C)CO)C(=O)c2cc(NC(=O)Nc3ccc4c(c3)OCO4)ccc2O[C@@H](C)CCCCO[C@@H]1CN(C)S(=O)(=O)c1ccccc1 | -3[16.7 µM] | -13
C[C@@H]1CN([C@@H](C)CO)S(=O)(=O)c2ccc(-c3ccc(F)cc3)cc2O[C@@H]1CN(C)C(=O)c1ccccc1F | -4[16.7 µM] | 10
COc1ccc(S(=O)(=O)N(C)C[C@H]2Oc3ccc(NS(=O)(=O)c4ccccc4)cc3CC(=O)N([C@@H](C)CO)C[C@H]2C)cc1 | 3[16.7 µM] | 0
CC(C)NC(=O)N(C)C[C@@H]1Oc2ccc(NC(=O)c3ccncc3)cc2C(=O)N([C@@H](C)CO)C[C@@H]1C | -16[16.7 µM] | -2
CCCNC(=O)N(C)C[C@@H]1Oc2ncc(C#CC(C)C)cc2C(=O)N([C@H](C)CO)C[C@@H]1C | -9[16.7 µM] | -2
C[C@@H]1CN([C@H](C)CO)C(=O)c2cc(C#C[C@@H](C)O)cnc2O[C@@H]1CN(C)C(=O)CC1CC1 | -11[16.7 µM] | -11
C[C@@H]1CN([C@@H](C)CO)C(=O)c2cc(NC(=O)c3ccccc3)ccc2O[C@@H](C)CCCCO[C@@H]1CN(C)Cc1ccc2c(c1)OCO2 | -97[16.7 µM] | 3
COc1cccc(-c2cnc3c(c2)C(=O)N([C@H](C)CO)C[C@H](C)[C@H](CN(C)C(=O)CN(C)C)O3)c1 | -19[16.7 µM] | 0
C[C@@H]1CCCCO[C@H](CN(C)C(=O)C2CCCCC2)[C@H](C)CN([C@@H](C)CO)C(=O)c2cc(NS(C)(=O)=O)ccc2O1 | 10[16.7 µM] | 16
C[C@H](CO)N1C[C@H](C)[C@@H](CN(C)C(=O)c2ccncc2)Oc2cc(C#CC3CC3)ccc2S1(=O)=O | -2[16.7 µM] | 44
